EPAC2 ant val: validation of human EPAC2 antagonists. EPAC2 Rap1B BODIPY-GDP exchange, fluorescence. Potency, µM (doses to about 112 µM), inactives show top-dose activity, negative = inhibition, usual class: inhibitors. actives 1.7% (n = 16,000); active = well fitted inhibition curve with a large enough effect; inconclusive = small, poorly fitted or top-dose-only effect; inactive = no such curve, though single readings can be large or run the other way;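 also: 100% = activation by cAMP agonist control; nearly all actives have a fitted effect of over 40% in size; the record reuses the description of the EPAC1 agonist screen; inactives centre near -10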
Target sequence (Q8WZA2 whole entry, looked up): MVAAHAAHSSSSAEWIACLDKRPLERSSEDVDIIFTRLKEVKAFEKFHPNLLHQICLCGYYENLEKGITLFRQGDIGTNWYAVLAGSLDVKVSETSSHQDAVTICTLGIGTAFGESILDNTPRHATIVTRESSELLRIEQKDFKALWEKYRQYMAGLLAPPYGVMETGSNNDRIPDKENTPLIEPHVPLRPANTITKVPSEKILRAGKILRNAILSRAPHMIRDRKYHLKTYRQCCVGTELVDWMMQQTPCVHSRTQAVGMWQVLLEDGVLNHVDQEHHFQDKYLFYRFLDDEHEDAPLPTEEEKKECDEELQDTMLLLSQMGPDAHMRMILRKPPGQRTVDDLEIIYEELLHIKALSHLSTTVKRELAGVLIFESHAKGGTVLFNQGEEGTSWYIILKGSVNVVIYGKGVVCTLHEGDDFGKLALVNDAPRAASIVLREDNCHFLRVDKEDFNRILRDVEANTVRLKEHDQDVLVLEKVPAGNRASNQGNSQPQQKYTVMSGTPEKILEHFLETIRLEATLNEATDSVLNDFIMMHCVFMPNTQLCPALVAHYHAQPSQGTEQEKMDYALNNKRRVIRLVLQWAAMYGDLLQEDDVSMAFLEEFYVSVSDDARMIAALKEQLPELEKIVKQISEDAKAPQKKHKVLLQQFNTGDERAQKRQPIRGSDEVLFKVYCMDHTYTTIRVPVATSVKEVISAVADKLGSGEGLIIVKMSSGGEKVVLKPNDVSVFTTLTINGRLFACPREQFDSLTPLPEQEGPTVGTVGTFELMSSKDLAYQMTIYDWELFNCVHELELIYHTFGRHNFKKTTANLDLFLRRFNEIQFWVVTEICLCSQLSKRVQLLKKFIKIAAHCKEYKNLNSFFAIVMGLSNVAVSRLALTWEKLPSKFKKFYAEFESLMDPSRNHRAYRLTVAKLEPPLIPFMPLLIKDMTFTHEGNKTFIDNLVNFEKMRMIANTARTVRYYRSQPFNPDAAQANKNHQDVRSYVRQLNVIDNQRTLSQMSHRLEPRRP
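Fluorescent exchange read-out: 100 nM EPAC2 with 250 nM RAP1B–BODIPY-GDP and 50 uM GDP; BODIPY-GDP release lowers fluorescence. Read at 480/540 nm every 5 min for 30 min at room temperature; normalized to 6.5 mM cAMP.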
Numbers without * were called inactive; ? = inconclusive; & = joins results of further samples; [ ] = dose if it differs, or a comment. Potency is read from the fitted curve at half-maximal effect. An excerpt; count on the stated rates, not on these rows.

Sample of the layout (2 entries):
SMILES | EPAC2 ant val
Cn1c(=O)c(-c2ccc(Cl)cc2)nc2cnc(OCc3ccccc3)nc21 | -7%
CCOC(=O)C1=C(C)NC(C)=C(C(=O)OCC)C1c1ccccc1C=CC(=O)OC(C)(C)C | -24%

Results (from the top)
SMILES | EPAC2 ant val
Cn1c(=O)c(-c2ccc(Cl)cc2)nc2cnc(OCc3ccccc3)nc21 | -7%
CCOC(=O)C1=C(C)NC(C)=C(C(=O)OCC)C1c1ccccc1C=CC(=O)OC(C)(C)C | -24%
O=c1ccc2ccc(O[C@@H]3O[C@H](CO)[C@@H](O)[C@H](O)[C@H]3O)c(O)c2o1 | 18%
COC(=O)C1N2C(=O)N(C)[C@H](C(=O)OC)[C@H]2SC1(C)C (some centres undefined) | 13%
C=CS(=O)(=O)O | 53%[activator]
O=C1OC(C(O)CO)C(O)=C1O (centres undefined) | -1%
CC1(C)OC2CC3C4CCC5=CC(=O)CCC5(C)C4(F)C(O)CC3(C)[C@]2(C(=O)CCl)O1 (some centres undefined) | -11%
CCCCCCCCN1[C@@H](CC(=O)O)c2ccc(/C=C/C(=O)O)cc2S1(=O)=O | -8%
Cc1cc(S(=O)(=O)NCc2nc(N3CCCC3)c3cc(Cl)ccc3n2)c(C)s1 | -2%
CC(=O)Nc1ccccc1-c1nc(CNC(=O)c2ccc(-n3cccn3)cc2)c(C)o1 | -6%
COc1ncc2ncc(=O)n(C3CC3)c2n1 | -4%
O=C(/C=C/c1ccc(OCc2ccccc2)cc1)c1cccs1 | -10%
O=C(c1cnccn1)N1CCC2(CC1)CN(C(c1ccccc1)c1ccccc1)C2 | -31%
c1ccc(-c2ccc(N3CCCC4(CCNCC4)C3)cc2)cc1 | -18%
CCCCCCCCCCCCN1C/C(=C\C(=O)OCC)c2ccccc2S1(=O)=O | -25%

5 entries out of the list, ordered by number of heavy atoms, low to high:
SMILES | EPAC2 ant val
O=C1OC(C(O)CO)C(O)=C1O (centres undefined) | -1%
O=c1ccc2ccc(O[C@@H]3O[C@H](CO)[C@@H](O)[C@H](O)[C@H]3O)c(O)c2o1 | 18%
CCCCCCCCN1[C@@H](CC(=O)O)c2ccc(/C=C/C(=O)O)cc2S1(=O)=O | -8%
CCCCCCCCCCCCN1C/C(=C\C(=O)OCC)c2ccccc2S1(=O)=O | -25%
CC(=O)Nc1ccccc1-c1nc(CNC(=O)c2ccc(-n3cccn3)cc2)c(C)o1 | -6%

More results.
SMILES | EPAC2 ant val
CCC(Cc1c(I)cc(I)c(O)c1I)C(=O)O (centres undefined) | ?
Oc1cc(-c2nc3ccccc3s2)cc2c1OCCN(Cc1cccn1-c1ncccn1)C2 | -9%
COC(=O)C1CCCCN1Cc1ccc2c(c1)CN(Cc1cnn(-c3ccccc3)c1)CCO2 (centres undefined) | -2%
Cn1cnc2c(NCc3ccccc3)nc(NCCO)nc21 | ?
Cc1cc(C(=O)Nc2ccccc2-c2nc(CNC(=O)C3COc4ccccc4O3)c(C)o2)c(C)o1 (centres undefined) | 5%
Cc1c(C(=O)NCCCc2ccncc2)cnn1-c1ncc2c(n1)-c1ccccc1CC2 | ?
COc1ccc(CCC(=O)c2c(O)cc(OC3OC(CO)C(O)C(O)C3O[C@@H]3OC(C)C(O)C(O)C3O)cc2O)cc1O (some centres undefined) | -16%
COc1cccc(Cn2c(=O)c(-c3cccc(C#N)c3)nc3cnc(N4CCOCC4)nc32)c1 | -2%
CCCCCCCCCCCCCCCCCCOP(=O)([O-])OC1CC[N+](C)(C)CC1 | -8%[56.6 µM]
C=C[C@@]1(C)CC(=O)[C@@]2(O)[C@@]3(C)[C@@H](O)CCC(C)(C)[C@@H]3[C@H](O)[C@H](OC(C)=O)[C@@]2(C)O1 | -31%
C[C@]12CCC(=O)C=C1C=C[C@@H]1[C@@H]2CC[C@@]2(C)[C@H]1CC[C@@]21CCC(=O)O1 | -12%
CC(C)(C)[C@H]1CCC(=O)N([C@H](CSc2ccc(Br)cc2)Cc2ccccc2)CC1 | ?
COC(=O)/C=C/c1cc(F)ccc1S(=O)(=O)Nc1ccccc1 | ?
CC(C)C(N)C(=O)O (centres undefined) | -3%
Cc1ccn(CCC(=O)NCC2Cc3cc(Cl)cc(-c4ccc5[nH]ccc5c4)c3O2)n1 (centres undefined) | -14%
O=S1(=O)CCOCCCN1Cc1ccccc1F | ?
O=C(NCC1Cc2cc(F)cc(-c3cccnc3)c2O1)c1cnn(-c2ccccc2)c1 (centres undefined) | ?
C#C[C@]1(O)CC[C@H]2[C@@H]3CCC4=C/C(=N/O)CC[C@@H]4[C@H]3CC[C@@]21CC | ?
CC(CN1c2ccccc2Sc2ccccc21)N(C)C (centres undefined) | -8%&-21%&1%
CN(Cc1ccco1)C(=O)c1cc(NC(=O)C2CCC2)c2c(c1)nc(-c1ccncc1)n2C | -23%
C=C1C(=C/C=C2\CCC[C@]3(C)[C@@H]([C@H](C)/C=C/[C@@H](O)C4CC4)CC[C@@H]23)C[C@@H](O)C[C@@H]1O | -29%
CN(C)c1ncc2nc(CCc3ccccc3)c(=O)n(CCC#N)c2n1 | -25%
COCC(=O)N1CCC[C@@]2(CCN(Cc3ccccc3OC)C2)C1 | -27%
COc1cc(/C=C/C(=O)O)ccc1O | -12%
Cc1cc(=O)oc2cc(O[C@@H]3O[C@H](C(=O)O)[C@@H](O)[C@H](O)[C@H]3O)ccc12 | -8%
CN(N=O)C(=O)N[C@H]1C(O)OC(CO)[C@@H](O)[C@H]1O (some centres undefined) | -27%
CC1=C(/C=C/C(C)=C/C=C/C(C)=C/C(=O)Oc2c(C)c(C)c3c(c2C)CC[C@@](C)(CCC[C@H](C)CCC[C@H](C)CCCC(C)C)O3)C(C)(C)CCC1 | 9%
CCn1cc(C(=O)O)c(=O)c2cc(F)c(N3CCNCC3)cc21 | 4%
O=C(c1ccncc1)N1CCC2(CCCN(Cc3ccccc3)C2)CC1 | -15%
Cc1cn([C@H]2C[C@H](N=[N+]=[N-])[C@@H](CO)O2)c(=O)[nH]c1=O | -11%&0%&-5%
CC1=C(\C=C/C(C)=C/C=C\C(C)=C\C(=O)O)C(C)(C)CCC1 | -19%[11.4 µM]
CNC(=O)Oc1ccc2c(c1)[C@@]1(C)CCN(C)C1N2C (some centres undefined) | -14%&-24%&-5%
N#Cc1cccc(-c2cc(NCc3cccs3)ncn2)c1 | -6%
CC(=O)Oc1cccc(C)c1 | 13%
CC(NC(=O)c1ccco1)c1nnc2n1CCN(Cc1ccc(N(C)C)cc1)CC2 (centres undefined) | -20%
COC1=CC(=O)C[C@@H](C)[C@]12Oc1c(Cl)c(OC)cc(OC)c1C2=O | -16%&-13%
Cc1noc(C)c1-c1nc(N2CCN(C)CC2)c2ccccc2n1 | -17%
Cc1cc(C)c(CN2CCC3(CCC(CNC(=O)c4ccn(C)n4)O3)CC2)cc1C (centres undefined) | -9%
COC(=O)CC1C2(C)CC34OC5(C)O[C@@]6(C7/C(=C(/OC)C(C)C)C(=O)OC(c8ccoc8)[C@@]7(C)C(OC(=O)C(C)C)C(OC)[C@]6(O5)[C@@]13C)C(OC)[C@]4(OC)C2OC(C)=O (some centres undefined) | ?
COc1ccccc1-c1ccnc(-n2ncc(C(=O)N(C)C(C)c3nc(C)cs3)c2C2CC2)n1 (centres undefined) | 13%
COc1ccccc1C(=O)N[C@@H]1c2ccccc2C2(CCN(Cc3nccs3)CC2)[C@H]1OC | ?
COc1cc(O)c(C)c(O)c1 | -7%
COCC(=O)Nc1cc(C(=O)N2CCN(C3CCCC3)C(=O)C2)c2c(c1)nc(-c1ccncc1)n2C | 6%
O=C1NC(=O)c2cc(Nc3ccccc3)c(Nc3ccccc3)cc21 | ?
CC(C)c1ccc(CN2CCC3(CCC(CNC(=O)c4ccn(C)n4)O3)CC2)cc1 (centres undefined) | -22%
Cc1onc(-c2c(F)cccc2Cl)c1C(=O)N[C@@H]1C(=O)N2[C@@H]1SC(C)(C)[C@@H]2C(=O)O | -4%&30%
O=c1c(CCc2ccccc2)nc2cnc(N3CCOCC3)nc2n1Cc1cccs1 | 0%
O=C(O)[C@H]1CN[C@H](C(=O)O)C1 | -23%
O=C(Oc1ccccc1)N1CCC2(CC1)CN(c1ncccn1)C2 | -25%
CCN1CCC(N[C@H]2C[C@@H](C(=O)NC)N(Cc3cccc4ccccc34)C2)CC1 | -4%
COc1ccc(CNc2cc(-c3cccc(NS(C)(=O)=O)c3)ncn2)c(OC)c1 | -20%
NC(N)=NC(=O)c1nc(Cl)c(N)nc1N | -3%
CCC1C(=O)NCCN1Cc1ccc2c(c1)CN(Cc1cc(OC)ccc1OC)CCO2 (centres undefined) | -16%
O=C(Nc1cccc2c(=O)cc(-c3nn[nH]n3)oc12)c1ccc(OCCCCc2ccccc2)cc1 | -19%
Cc1c([N+](=O)[O-])cnc2ccccc12 | 1%
Cc1ncc2c(c1CNC(=O)c1cncs1)CCN(C(=O)c1ccsc1)C2 | -3%
COc1ccccc1CNc1ncncc1-c1ccccc1OC | ?
COCCn1c(=O)c(-c2cc(F)cc(F)c2)nc2cnc(N(C)C)nc21 | 19%
CN1CCN(c2cc(-c3ccc(N(C)C)cc3)ncn2)CC1 | -4%
CC(=O)[C@@]1(O)CC[C@H]2[C@@H]3CCC4=CC(=O)CC[C@]4(C)[C@H]3CC[C@@]21C | -24%&12%

Single values from the entries so far.
Reading for CCC1C(=O)NCCN1Cc1ccc2c(c1)CN(Cc1cc(OC)ccc1OC)CCO2 (centres undefined) in EPAC2 ant val: -16%
Reading for O=C(O)[C@H]1CN[C@H](C(=O)O)C1 in EPAC2 ant val: -23%
Reading for Cc1onc(-c2c(F)cccc2Cl)c1C(=O)N[C@@H]1C(=O)N2[C@@H]1SC(C)(C)[C@@H]2C(=O)O in EPAC2 ant val: -4%&30%
Reading for Cc1ncc2c(c1CNC(=O)c1cncs1)CCN(C(=O)c1ccsc1)C2 in EPAC2 ant val: -3%

The results go on.
SMILES | EPAC2 ant val
c1cncc(-c2nccc(-n3ccnc3)n2)c1 | -8%
O=C(c1csnn1)N1CCC2(CC1)CCN(c1ncccn1)CC2 | -19%
CC(=O)Oc1ccccc1C(=O)Oc1ccccc1C(=O)O | -14%
COc1ccc(-n2c(=O)cnc3cnc(Nc4ccccc4)nc32)cc1 | -12%
CC(C)CCCC(C)C1CCC2C3C(=O)C=C4CC(O)CC[C@@]4(C)C3CC[C@@]12C (some centres undefined) | -5%
CO[C@@H]1[C@@H](O[C@@H]2O[C@H](C)[C@@H](O[C@H]3C[C@@](C)(O)[C@@H](O)[C@H](C)O3)[C@H](N(C)C)[C@H]2O)[C@@H](CC=O)C[C@@H](C)[C@@H](O[C@@H]2CC[C@H](N(C)C)[C@@H](C)O2)/C=C/C=C/C[C@@H](C)OC(=O)C[C@H]1OC(C)=O | 42%[activator]
C=C1CCC(O)C/C1=C/C=C1\CCC[C@@]2(C)C(C(C)/C=C/C(C)C(C)C)CC[C@@H]12 (some centres undefined) | -20%
C[C@H](/C=C/[C@H](C)C(C)(C)O)[C@H]1CC[C@H]2/C(=C/C=C3C[C@@H](O)C[C@H](O)C3)CCC[C@]12C | 16%
CC(C)C(NC(=O)c1ccccn1)c1nnc2n1CCN(Cc1ccc3ccccc3c1)CC2 (centres undefined) | -23%
CCCCCc1ccc(-c2cn(Cc3ccc4ccccc4c3)nn2)cc1 | -6%
O=C1CCN(CCc2ccccc2)CCN1[C@H](CO)c1ccccc1 | ?
COc1ccc(-n2c(=O)c(CCc3ccccc3)nc3cnc(N(C)C)nc32)cc1 | -17%
O=C(NCc1nnc2n1CCN(Cc1cc3c(cc1Cl)OCO3)CC2)C1CCOC1 (centres undefined) | -13%
CN(C)C(=S)SC(=S)N(C)C | 15%
O=C1CCN(Cc2ccccc2)S(=O)(=O)c2ccc(C(F)(F)F)cc21 | ?

Looked up by compound from the entries so far (5):
SMILES | EPAC2 ant val
CN(C)C(=S)SC(=S)N(C)C | 15%
CCCCCc1ccc(-c2cn(Cc3ccc4ccccc4c3)nn2)cc1 | -6%
COc1ccc(-n2c(=O)c(CCc3ccccc3)nc3cnc(N(C)C)nc32)cc1 | -17%
O=C(c1csnn1)N1CCC2(CC1)CCN(c1ncccn1)CC2 | -19%
CO[C@@H]1[C@@H](O[C@@H]2O[C@H](C)[C@@H](O[C@H]3C[C@@](C)(O)[C@@H](O)[C@H](C)O3)[C@H](N(C)C)[C@H]2O)[C@@H](CC=O)C[C@@H](C)[C@@H](O[C@@H]2CC[C@H](N(C)C)[C@@H](C)O2)/C=C/C=C/C[C@@H](C)OC(=O)C[C@H]1OC(C)=O | 42%[activator]

More entries follow.
SMILES | EPAC2 ant val
C[C@@H]1NS(=O)(=O)[C@H]2C[C@@H]3C=C[C@]2(O3)[C@H]1OC(=O)c1ccccc1Br | -8%
CC[C@H](CC[C@@H](C)C1CC[C@H]2[C@@H]3CC=C4C[C@@H](O)CC[C@]4(C)[C@H]3CC[C@]12C)C(C)C (some centres undefined) | -7%
Cn1c(SCC2CCCO2)nnc1C1CCN(Cc2ccccc2O)CC1 (centres undefined) | 12%
CC(=O)OCC(=O)[C@@]1(O)CCC2C3CCC4=CC(=O)CC[C@]4(C)C3C(=O)C[C@]21C (some centres undefined) | -22%
COc1cc(C)c(CN2CCc3nnc(C(C)NC(=O)c4cc(F)ccc4F)n3CC2)cc1C (centres undefined) | -11%
O=C(CCn1cncn1)NCC1Cc2cc(-c3ccsc3)cc(Cl)c2O1 (centres undefined) | -24%
COC(=O)[C@@H]1C[C@@H](NC(=O)c2ccc(C(F)(F)F)cc2)CN1Cc1cccc(O)c1 | -19%
COc1cc(CNC(=O)CCCC/C=C\C(C)C)ccc1O | ?
COc1cc(CN2CCOc3ccc(C(O)c4cccnc4)cc3C2)cc(OC)c1 (centres undefined) | -3%
O=c1c(-c2ccc(F)cc2)nc2cncnc2n1-c1ccccc1 | 10%
COc1cc(CN2CCC3(CCC(CNC(=O)c4cc(C)nn4C)O3)CC2)ccc1F (centres undefined) | -26%
COc1ccc(-n2c(=O)cnc3cnc(N4CCOCC4)nc32)cc1 | 9%
C(=C\c1ccc2ccccc2n1)/c1ccc2ccccc2n1 | -21%

Bioassay records as filed in PubChem.
